# From PubChem BioAssay
# OX1R antag – antagonists of human orexin 1 receptor | O43613 | CHO/OX1R cells, Fluo-8 calcium fluorescence, orexin A | inhibition, % at 5 µM | actives 0.43% (n = 330,000) | AID 434989;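 active = inhibition above its plate's threshold, mean inhibition of all tested compounds on the plate plus 3 SD, cut at about 37% in these data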;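 note: 0% = orexin A challenge wells and 100% = SB-334867-A antagonist wells; not every result past the cut was called active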
# Target sequence (O43613 whole entry, looked up): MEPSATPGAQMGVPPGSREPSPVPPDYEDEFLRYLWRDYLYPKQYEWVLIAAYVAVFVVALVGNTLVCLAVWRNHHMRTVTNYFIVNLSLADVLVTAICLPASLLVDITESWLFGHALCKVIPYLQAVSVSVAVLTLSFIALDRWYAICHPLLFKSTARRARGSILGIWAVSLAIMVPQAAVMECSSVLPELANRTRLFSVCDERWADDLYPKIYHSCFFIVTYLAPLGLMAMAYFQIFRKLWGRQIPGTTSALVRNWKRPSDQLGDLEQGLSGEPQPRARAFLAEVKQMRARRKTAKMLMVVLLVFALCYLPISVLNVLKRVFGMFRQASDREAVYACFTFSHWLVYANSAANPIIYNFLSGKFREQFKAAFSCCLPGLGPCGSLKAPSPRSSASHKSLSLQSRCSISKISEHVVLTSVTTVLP
# Active calls of the source: *.
OX1R antag | molecule
-15.2 | Cc1c(NC(=O)CSCc2ccc(Br)cc2)c(=O)n(-c2ccccc2)n1C
-23.0 | Cc1ccc(CSc2nc3ccccc3c(=O)n2Cc2ccco2)cc1
9.4 | Cc1cccc(CN2CCOCCS2(=O)=O)c1
-17.3 | C/C(=N\NC(=O)c1c(Cl)c(C)nn1C)c1cccc(NC(=O)COc2ccc(Cl)cc2)c1
-29.1 | Cc1cc(C)n(CC(C)NCc2cn[nH]c2-c2ccc(C)c(C)c2)n1 (centres undefined)
-12.1 | CCCNC(=O)CS(=O)(=O)Cc1nc(-c2cccc(OC)c2)oc1C
-9.2 | CC(=O)Nc1ccc(-c2nc3ccc(NC(C)=O)cc3o2)cc1
-15.8 | COc1ccc(C(=O)CN2CC(C)SC2=Nc2ccc(Cl)cc2)cc1 (centres undefined)
-14.3 | CC(C)NC(=O)NC(=O)CN1c2cccc3cccc(c23)S1(=O)=O
-20.3 | O=C(NCc1ccc(F)cc1)c1ccc(Cl)c(NC2=NC3CS(=O)(=O)CC3S2)c1 (centres undefined)

# Going on with the list:
OX1R antag | molecule
3.5 | Nc1nonc1C(=O)N/N=C/c1ccc(-c2cccc([N+](=O)[O-])c2)o1
14.4 | O=c1[nH]c2ccc(NS(=O)(=O)c3ccc4ccccc4c3)cc2[nH]1
-20.3 | CCOC(=O)c1c(NC(=O)C2C3CCC(O3)C2C(=O)O)sc(C)c1-c1ccc(F)cc1 (centres undefined)
-19.0 | CCC(=O)Nc1ccc(NC(=O)CSc2nc3cc4c(cc3cc2C)CCC4)cc1
-24.3 | COc1ccc(C(CC(=O)N2CCCCC2)c2c(OC)cc(OC)c3c(-c4ccccc4)cc(=O)oc23)cc1 (centres undefined)
-6.1 | Cc1c(OCC(=O)NCCN2CCOCC2)ccc2c(-c3ccccc3)cc(=O)oc12
-18.2 | CC(=O)NC(C1C(=O)CC(C)(C)CC1=O)(C(F)(F)F)C(F)(F)F
-14.4 | CCOc1ccc(CN2CCNC(=O)C2CC(=O)NCCCOc2cccnc2)cc1 (centres undefined)
-4.5 | COc1cccc2sc(N(CCN(C)C)C(=O)c3ccc(S(=O)(=O)N4CCCC4)cc3)nc12
1.6 | CC(=O)Nc1ccc(C23CC4CC(CC(C4)C2)C3)cc1

# (more compounds)
OX1R antag | molecule
-19.0 | N#CCCn1c(SCC(=O)NCc2ccco2)nc2ccccc21
4.4 | COc1ccc(CN(C(C)=O)c2ccccc2C(=O)O)cc1
-7.6 | COc1ccc(-n2c(=S)[nH]c3cc(C(=O)NCc4ccco4)ccc3c2=O)c(OC)c1
-18.0 | O=C(COc1ccc(S(=O)(=O)NCc2ccccc2)cc1Cl)NCc1ccncc1
-16.3 | Clc1nc(CN2CCCCC2)nc2sc3c(c12)CCC3
-19.5 | CCN(CC)C(=O)CSc1nnc(COc2cccc(C)c2)n1C
-11.0 | CC(NS(=O)(=O)c1ccc2c(c1)OCCO2)c1ccccc1 (centres undefined)
-6.9 | N#Cc1ccc(OCc2nnc3n2CCCCC3)cc1
-15.3 | CC(OC(=O)C1=Cc2ccccc2OC1)C(=O)NCc1ccco1 (centres undefined)
1.2 | O=S(=O)(c1ccc(Cl)cc1)N1CCN(C2CCCCCC2)CC1

# 4 compounds drawn at random from those above:
OX1R antag | molecule
-19.5 | CCN(CC)C(=O)CSc1nnc(COc2cccc(C)c2)n1C
-7.6 | COc1ccc(-n2c(=S)[nH]c3cc(C(=O)NCc4ccco4)ccc3c2=O)c(OC)c1
-6.9 | N#Cc1ccc(OCc2nnc3n2CCCCC3)cc1
4.4 | COc1ccc(CN(C(C)=O)c2ccccc2C(=O)O)cc1

# Carrying on.
OX1R antag | molecule
-24.1 | CCOC(=O)Cc1nc2ccccc2[nH]1
-15.0 | COc1ccc(C2CC(c3ccco3)n3ncnc3N2)cc1 (centres undefined)
-7.6 | COc1ccccc1CNc1nc(SC)ncc1CO
-14.6 | O=C(NCCCn1ccnc1)/C(=C\c1cccs1)NC(=O)c1ccccc1
-13.6 | COc1ccc(CNC(=O)Cn2ncn3cccc3c2=O)cc1
-13.8 | COc1ccc(NC(=O)c2cc(S(=O)(=O)N3CCCC3)ccc2OC)cc1
-16.5 | O=C(NNC(=O)c1cccc2ccccc12)c1ccc(-c2ccccc2)cc1
-21.7 | Cc1cc(C(=O)COC(=O)c2cccnc2Cl)c(C)n1-c1c(C)n(C)n(-c2ccccc2)c1=O
-23.7 | CCOc1ccc(NC(=O)C/C(C)=N/NC(=O)COc2ccc(Br)cc2C)cc1
-10.1 | CCCCc1c(O)nc(SCC(=O)N2CCOCC2)n(-c2ccc(OC)cc2)c1=O

# Following part
OX1R antag | molecule
-17.0 | CCN(CCCNC(=O)CCn1c(=O)[nH]c2ccccc2c1=O)c1cccc(C)c1
-9.3 | O=C(NCc1ccc(F)cc1)c1cccc(S(=O)(=O)N2CCCC2)c1
-9.8 | COC(=O)C1(C)NC(c2ccc(F)cc2)C2C(=O)N(c3ccccc3)C(=O)C21 (centres undefined)
-2.9 | COc1ccccc1OCC(=O)Nc1ccc2c(c1)OCO2
-22.9 | Clc1ccc(-c2nnc(-c3ccccc3Cl)o2)cc1
-11.1 | CC(=O)NC(c1cccc([N+](=O)[O-])c1)c1c(OC(C)=O)ccc2ccccc12 (centres undefined)
-12.7 | CC(C)CCOC(=O)C(C)Sc1n[nH]c(=O)[nH]c1=O (centres undefined)
-3.1 | N#CC1=C(N)SC(C(=O)c2ccccc2)C1c1cccs1 (centres undefined)
-8.0 | COc1ccc(N/C(=C/[N+](=O)[O-])SC)cc1
-5.2 | CC(=O)Nc1ccc(CN2CCc3c([nH]c4ccccc34)C2c2ccccn2)cc1 (centres undefined)

# (more compounds)
OX1R antag | molecule
-25.5 | CCOc1ccc(N(C(C)C(=O)NN=C2CCCCCCC2)S(C)(=O)=O)cc1 (centres undefined)
-6.7 | O=C(CNC(=O)c1ccc(Br)cc1)c1ccc(Br)cc1
-4.5 | COc1cccc(/C=N/n2c(=S)n(C)c3cc(C)c(C)cc32)c1OC
-7.8 | Cc1ccc2nnn(Cc3cccc(C(C)(C)C)c3O)c2c1
-19.3 | Cc1cccc(C(=O)NCC(=O)NCCCSc2ccccc2)c1
-17.9 | Cc1cc(NC(=O)CSc2nnc3c(C)cc4c(C)ccc(C)c4n23)no1
-11.8 | Nc1c(C(=O)N/N=C/c2ccc(OCc3ccccc3)cc2)cnn1-c1ccccc1
-30.4 | COc1cccc2c1Oc1ncccc1N(C(=O)CCC(=O)NCc1ccccc1Cl)C2
-7.1 | COc1ccc(C2=NN(C(=O)c3cccc([N+](=O)[O-])c3)C(c3cccc([N+](=O)[O-])c3)C2)cc1 (centres undefined)
-25.6 | COc1ccccc1NC(=O)C1CCN(S(C)(=O)=O)CC1

# Continued:
OX1R antag | molecule
7.8 | CO/N=C/NC(=O)NOCc1c(Cl)cccc1Cl
-18.6 | Cc1c(C(=O)NCCCN2CCOCC2)oc2ccc(S(=O)(=O)N3CCOCC3)cc12
-25.4 | CC1CCCC(NC(=O)c2ccc3c(c2)N(Cc2ccccc2)C(=O)CS3=O)C1C (centres undefined)
-28.3 | COc1ccc2c(=O)c3c(=O)n(CCc4ccccc4)c(C(C)C)nc3oc2c1
-12.4 | C=CCN1C(=O)/C(=C2/Sc3ccccc3N2C)SC1=Nc1ccccc1C
-18.8 | CCn1c(CSc2nc3ccccc3s2)nnc1SCC(=O)OC(C)(C)C
-22.8 | COc1ncccc1C(=O)N1CCCC(C(=O)c2cc(F)ccc2F)C1 (centres undefined)
16.2 | C=CCNC(=O)CC(=O)N/N=C/c1ccc(F)cc1
-22.0 | CC1CCCCC1NC(=O)COC(=O)COc1ccccc1Cl (centres undefined)
-10.2 | Cc1nnc(NC(=O)Cn2cnc3c2c(=O)n(C)c(=O)n3C)s1

# (next part)
OX1R antag | molecule
-0.3 | N#CCC(=O)Nc1ccc(C(=O)OC(C(=O)Nc2cc(C(F)(F)F)ccc2Cl)c2ccccc2)cc1 (centres undefined)
7.4 | O=C1COc2ccc(C(=O)NC3CC3)cc2N1
-41.1 | Nn1c(Cc2cccc3ccccc23)nnc1SCc1c(Cl)cccc1Cl
-10.8 | CCCOC1CCCN(C(=O)c2ccc(OC)c(OC3CCN(C(C)C)CC3)c2)C1 (centres undefined)
-3.1 | Clc1ccc(C[n+]2cc(-c3ccccc3)n3c2CCC3)cc1
4.9 | O=C(NCC1CCCO1)c1ccc(S(=O)(=O)N2CCCCC2)cc1 (centres undefined)
-11.4 | CN(C)/C=C/C(=O)c1ccc(Br)s1
5.9 | CCOc1ccc(NC(=O)c2ccc3c(=O)n4c(nc3c2)CCCCC4)cc1
-7.6 | O=Cc1ccc(-c2cc(Cl)ccc2Cl)[nH]1
-4.9 | O=C(COC(=O)c1cnc(Cl)c(Cl)c1)NCc1ccc2c(c1)OCO2

# Continuation:
OX1R antag | molecule
-2.7 | COCCCn1c(=O)c2sccc2n2c(CCCC(=O)NCc3ccc(F)cc3)nnc12
-4.6 | Cc1ccccc1OCCC(=O)OCC(=O)Nc1ccc(C(N)=O)cc1
-21.9 | N#Cc1ccccc1NC(=O)C1CC(=O)N(c2ccc3c4c(cccc24)CC3)C1 (centres undefined)
-35.6 | CS(=O)(=O)N(CCc1ccccc1)CC(=O)NCc1ccccc1
-28.1 | COc1ccc(N2CCN(C(=O)c3cc(=O)c4cc(C)c(C)cc4o3)CC2)cc1
-16.0 | O=C1CCCC(=O)C1CS(=O)(=O)c1ccccc1
-20.2 | CCOC(=O)c1ccccc1NC(=O)c1cccc2c1C(=O)N(C1CCN(C(=O)OCC)CC1)C2
-18.8 | COc1cc(OC)nc(NC(=S)NC(=O)c2ccccc2)n1
0.6 | CN(C)S(=O)(=O)N1CCC(Oc2ccc(C(=O)NCc3cnn(C)c3)cc2)CC1
-5.7 | CC(C)CC(NC(=O)OC(C)(C)C)c1cn([C@@H](CCC(=O)OC(C)(C)C)C(=O)N2CCN(C(=O)OC(C)(C)C)CC2)nn1 (some centres undefined)

# The results go on:
OX1R antag | molecule
1.9 | C#C[C@]1(O)CC[C@H]2[C@@H]3CCc4cc(OC)ccc4[C@H]3CC[C@@]21C
-16.7 | Cc1ccccc1NC(=O)/C(=C\c1cccs1)NC(=O)c1ccccc1
-8.2 | N#CC1=C(Nc2ccccc2)SC=C(c2ccc(F)cc2)N=C1N1CCOCC1
-36.2 | COc1cc2[nH]c(=S)nc(NCc3cccnc3)c2cc1OC
-13.9 | NC(=O)COc1ncn(-c2ccccc2)n1
-18.8 | O=C(/C=N/O)Nc1ccccc1C(=O)O
-26.1 | CCOc1ccc(S(=O)(=O)c2c[nH]c3ccccc3c2=O)cc1
-21.0 | COc1ccc(N2CCN(Cc3nnc(-c4ccccc4)o3)CC2)cc1
-5.6 | COc1ccccc1NC1=NC2(CCCC2)N=C(N)N1
-2.0 | Nc1ccc(S(=O)(=O)NNC(=O)C(=O)NNc2ccccn2)cc1

# New compounds follow:
OX1R antag | molecule
-5.3 | CC(C)c1ccc(Oc2cccc(C(=O)/C(C#N)=C/N(C)C)c2)cc1
-11.1 | COC(=O)CN(C#N)c1nc(SC)nc(N(C)C)n1
-33.3 | C/C(CC(=O)NCc1ccc(F)cc1)=N\NC(N)=S
-30.1 | O=C(CSc1ncc(C(F)(F)F)cc1Cl)N1CCN(S(=O)(=O)c2ccc(Cl)cc2)CC1
-24.9 | Cc1ccc(C(=O)Nc2ccc3c(c2)nc(CCNC(=O)c2ccco2)n3C)cc1
-20.0 | COc1cccc(CN2CCN(CCc3ccccc3)C(CCO)C2)c1OC (centres undefined)
-16.1 | COc1cc2c(cc1OC)CN(CC(=O)Nc1ccc(Cl)c(S(=O)(=O)N(C)C)c1)CC2
3.4 | CC(=O)Nc1ccc(S(=O)(=O)N2CCN(c3ccc(C)c(Cl)c3)CC2)cc1
-21.2 | CC1CN(Cc2c(O)ccc3c(=O)c(-c4ccccc4)coc23)CC(C)O1 (centres undefined)
-15.6 | S=C(NCC1CCCO1)Nc1cccc(Cl)c1 (centres undefined)

# Further results.
OX1R antag | molecule
-21.0 | COc1ccc(C(=O)O/N=C(\C)c2ccccc2)cc1
-1.3 | C/C(=N\O)C(C)(C)Nc1cccc(F)c1
-9.5 | Cc1ccc(C(=O)N/N=C/c2nc3ccccc3n2C)cc1
-15.6 | O=S(=O)(NCC1CCCN(Cc2ccccc2O)C1)c1cccc2cccnc12 (centres undefined)
-25.0 | CCCCN1C(=O)N(c2ccc(Cl)cc2)C(C)(O)CC1(C)C (centres undefined)
1.8 | CCC(=O)N1CCc2cc(S(=O)(=O)CCC(=O)Nc3ccc(C)c(F)c3)ccc21
19.0 | O/N=C\c1ccc(-c2ccccc2)o1
-23.2 | COc1ccccc1NC(=O)CN1CCN(CC(=O)Nc2ccc(F)cc2)CC1
-1.8 | CC(=O)c1cccc(N(CC(=O)N2CCCC2)S(C)(=O)=O)c1
-16.8 | CCNc1nc(NCC)nc(C(=O)NN)n1

# Additional structures.
OX1R antag | molecule
-38.9 | CC(=O)C1=C(C)NC(=O)NC1c1cc(Br)ccc1OCC#N (centres undefined)
-20.8 | O=C(CSc1nc2c(c(=O)n1-c1ccc(Cl)cc1)SCC2)N1CCOCC1
-21.5 | COC(=O)C(C)NC(=S)N1CCN(c2c(F)cc3c(=O)c(C(=O)O)cn(C4CC4)c3c2OC)CC1C (centres undefined)
-16.7 | Cc1noc(C)c1-c1nnc(-c2ccc(C(F)(F)F)cc2)o1
0.6 | O=C(Nc1nc2ccccc2[nH]1)c1ccccc1F
-26.7 | FC(F)(F)c1ccc(/C=N/n2c(COc3ccccc3)n[nH]c2=S)cc1
-16.6 | Cc1ccc(S(=O)(=O)NNC(=O)C(=O)NNc2ccccn2)cc1
-23.5 | CC(C)Nc1nc(-c2ccccc2)nc(-n2ccnc2)n1
2.7 | Cc1ccc(S(=O)(=O)N2CCOCC2)cc1NC(=O)CNCc1ccccn1
-25.0 | O=C(NC1CCCN(c2ccc(C(F)(F)F)cn2)C1)c1ccnc(Cl)c1 (centres undefined)

# Five consecutive compounds from above:
OX1R antag | molecule
-26.7 | FC(F)(F)c1ccc(/C=N/n2c(COc3ccccc3)n[nH]c2=S)cc1
-16.6 | Cc1ccc(S(=O)(=O)NNC(=O)C(=O)NNc2ccccn2)cc1
-23.5 | CC(C)Nc1nc(-c2ccccc2)nc(-n2ccnc2)n1
2.7 | Cc1ccc(S(=O)(=O)N2CCOCC2)cc1NC(=O)CNCc1ccccn1
-25.0 | O=C(NC1CCCN(c2ccc(C(F)(F)F)cn2)C1)c1ccnc(Cl)c1 (centres undefined)

# This is a subset, and most or all hits are left out here.
